# Biofilm kill mix – mixture kills Candida albicans biofilm cells. C. albicans biofilm persisters + clotrimazole, fluorescence viability; primary screen in compound mixtures of four per well. inhibition, % at 7.6 µM. 120,000 tested, 0.02% active. AID 1242;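 active means inhibition above 30.3% in the primary screen of four-compound pools, then above 30% when the compound was retested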;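 further: compounds exposed to preformed 24 h biofilms for 48 h; the number belongs to the whole pool; some results filed as inactive read as strong as hits; inactives centre near 12; 0% = biofilm with clotrimazole alone and 100% = kill control; retested singly at about 60 µM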
#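 Test system: C. albicans CAF4-2 wild-type biofilms; buffer or medium: RPMI/MOPS medium, pH 7.0; schedule: 24 h biofilm formation, then 48 h compound exposure, 37 °C; detection: Alamar Blue fluorescence; measure: percent inhibition of biofilm viability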
# * = called active by the depositor.
SMILES,Biofilm kill mix
Cc1cccc(-n2ccnc2CN2CCN(C(C)C)C(CCO)C2)c1 (stereo not given),17.6
CC12CCC(C(=O)NNc3ccc([N+](=O)[O-])cc3)(CC1=O)C2(C)C (stereo not given),8.4
Cc1cccc(NC(=O)c2nc[nH]c2C(=O)N[C@@H](C)C(=O)OCc2ccccc2)c1,7.7
Cc1ccnc(NS(=O)(=O)c2ccc(NC(=O)CSc3nc(-c4ccccc4)cc(=O)[nH]3)cc2)n1,14.9
Cc1cc(C)c(S(=O)(=O)NCCOc2ccccc2)c(C)c1-n1cnnn1,23.5
O=c1cc(O)c2ccc(O)cc2o1,1.5
O=C(Nc1nnc(SCc2ccc(F)cc2)s1)c1ccc2ncsc2c1,11.3
FC(F)(F)c1ccc(N2CCN(Cc3ccc4c(c3)OCO4)CC2)nc1,20.6
CC(C)CNC(=O)c1cccc(NC(=O)c2ccc(Cl)c([N+](=O)[O-])c2)c1,14.5
CCCCn1nnc(NC(=O)c2ccc(-c3ccccc3[N+](=O)[O-])o2)n1,15.6
CCOC(=O)c1c[nH]c2c(C)ccc(Cl)c2c1=O,5.7
COc1ccccc1C(=O)Nc1ccc(C(=O)c2ccccc2)cc1,19.3
CCCC(=O)Nc1nc(-c2ccc(Cl)s2)cs1,9.2
COc1ccccc1S(=O)(=O)CC(O)COc1ccc(F)cc1Cl (stereo not given),16.8
O=C1/C(=C\c2ccc(-c3ccccc3[N+](=O)[O-])o2)C(c2ccccc2)=NN1c1ccccc1,13.4
CC(C)OP(=O)(CCP(=O)(OC(C)C)OC(C)C)OC(C)C,9.8
COc1ccc(C2=NN(C(=O)CN3CCCCC3)C(c3ccc(OC)cc3)C2)cc1 (stereo not given),21.2
O=C(/C=C/c1ccc(Cl)cc1)N1CCN(c2ccc([N+](=O)[O-])c(N3CCOCC3)c2)CC1,19.0
CC(=O)N(C(C)=O)n1c(/C=C/c2cccc([N+](=O)[O-])c2)nc2ccccc2c1=O,12.5
CCOC(=O)c1cc([N+](=O)[O-])sc1NC(=O)CC,7.7

# 4 of the compounds above, field by field:
CC12CCC(C(=O)NNc3ccc([N+](=O)[O-])cc3)(CC1=O)C2(C)C (stereo not given)
  Biofilm kill mix: 8.4

Cc1cccc(NC(=O)c2nc[nH]c2C(=O)N[C@@H](C)C(=O)OCc2ccccc2)c1
  Biofilm kill mix: 7.7

Cc1ccnc(NS(=O)(=O)c2ccc(NC(=O)CSc3nc(-c4ccccc4)cc(=O)[nH]3)cc2)n1
  Biofilm kill mix: 14.9

Cc1cc(C)c(S(=O)(=O)NCCOc2ccccc2)c(C)c1-n1cnnn1
  Biofilm kill mix: 23.5

# (next part)
SMILES,Biofilm kill mix
O=C(CSc1ncccn1)NC1CCCc2ccccc21 (stereo not given),14.4
O=C1CC(c2ccccc2)C(C(=O)Nc2ccccc2F)N1 (stereo not given),7.9
O=C(NCCc1c[nH]c2ccccc12)/C(=C/c1cccnc1)NC(=O)c1ccco1,7.1
CCc1ccc(C(=O)COC(=O)C(CCSC)NC(=O)C23CC4CC(CC(C4)C2)C3)cc1 (stereo not given),4.5
CC1=N/C(=C/c2cccnc2)C(=O)O1,22.6
COc1cccc2c1OCC(C(=O)OCc1cccnc1)=C2,16.6
COC(=O)c1c(NC(=O)C(C)C)sc2c1C(C(=O)OC)CC2 (stereo not given),9.2
COc1cc(/C=N/N(C)C)cc(Br)c1O,2.3
CCOc1ccc(/C=N/Nc2ccc(C(F)(F)F)cc2[N+](=O)[O-])cc1O,13.9
Cc1cc(C)c(S(=O)(=O)c2cccc(Cl)c2)c(Cl)n1,17.0
O=C(CN1C(=O)CCC1=O)Nc1cccc2c1C(=O)NC2=O,3.7
O=C1NCCN(Cc2ccc(Cl)c(F)c2)C1CC(=O)N1CCCCO1 (stereo not given),6.9
CCOc1ccc2c(c1)[nH]c(=S)n2C,16.1
COC(=O)C(C)Oc1cc(OC(C)C(=O)OC)c2c(C)c(Cl)c(=O)oc2c1 (stereo not given),11.4
O=C(/C=C/c1cc([N+](=O)[O-])ccc1OC(F)F)Nc1cccc([N+](=O)[O-])c1,13.8
Cc1cnc2c(C(=O)O)cnn2c1,10.6
O=C(O)c1ccc(-n2cccc2/C=C2/NC(=O)N(c3ccccc3)C2=O)cc1,20.5
Cc1nc(Nc2ccc(Cl)cc2Cl)sc1C(=O)Nc1ccccc1,16.9
Cc1ccccc1Cn1nc(C)c(NC(=O)C2(C)CC2(Cl)Cl)c1C (stereo not given),11.8
Cc1ccc(C)c(CN2C(=O)c3ccccc3S(=O)c3ccc(C(=O)N4CCN(c5ccccn5)CC4)cc32)c1 (stereo not given),6.6

# Structural class, the entries above containing fluorine
SMILES,Biofilm kill mix
O=C(Nc1nnc(SCc2ccc(F)cc2)s1)c1ccc2ncsc2c1,11.3
FC(F)(F)c1ccc(N2CCN(Cc3ccc4c(c3)OCO4)CC2)nc1,20.6
COc1ccccc1S(=O)(=O)CC(O)COc1ccc(F)cc1Cl (stereo not given),16.8
O=C1CC(c2ccccc2)C(C(=O)Nc2ccccc2F)N1 (stereo not given),7.9
CCOc1ccc(/C=N/Nc2ccc(C(F)(F)F)cc2[N+](=O)[O-])cc1O,13.9
O=C1NCCN(Cc2ccc(Cl)c(F)c2)C1CC(=O)N1CCCCO1 (stereo not given),6.9
O=C(/C=C/c1cc([N+](=O)[O-])ccc1OC(F)F)Nc1cccc([N+](=O)[O-])c1,13.8

# Other entries.
SMILES,Biofilm kill mix
Cc1ccc(C(=O)N2C(=O)C(c3ccccc3)Oc3ccccc32)cc1 (stereo not given),30.3
CC(C)C(=O)N1CCN(c2ccc(NC(=O)c3ccc4c(c3)OCCO4)cc2)CC1,1.9
C/C(=N/NC(=O)CC(=O)N/N=C(\C)c1ccc([N+](=O)[O-])cc1)c1ccc([N+](=O)[O-])cc1,18.2
Cc1cccc(NC(=O)/C(=C\c2ccc([N+](=O)[O-])o2)NC(=O)c2ccc(Cl)cc2)c1,15.0
COc1ccc(-n2c(N)c(C(=O)Nc3c(C)n(C)n(-c4ccccc4)c3=O)c3nc4ccccc4nc32)cc1,28.1
CCOc1ncccc1C(=O)OC(C)C(=O)NC(=O)NC1CCCCC1 (stereo not given),8.6
Cc1cc(C)n2ncc(S(=O)(=O)c3ccccc3)c2n1,12.0
Cc1ccccc1CN1CCc2c(OCC(=O)N3CCCc4ccccc43)cccc2C1=O,4.6
O=C1CC(/C=C/c2ccccn2)=Nc2ccccc2N1,17.3
O=C(O)CSc1cc(C(=O)c2ccccc2O)cn2c(=O)c3c4c(sc3nc12)CCCC4,13.8
O=C(CCN1CCCCCC1)c1ccccc1,18.6
CCOc1ccccc1NC(=O)C(OC(=O)c1ccccc1O)c1ccccc1 (stereo not given),17.3
Cc1ccc(/C=C2\NC(=S)NC2=O)cc1[N+](=O)[O-],12.2
CCN(Cc1ccncc1)C(=O)c1ccccc1NS(=O)(=O)c1ccc(F)cc1,11.3
C/C(CC(=O)N1CCN(C=O)CC1)=N\NC(=O)c1cc2ccccc2cc1O,3.0
CCc1ccc(NC(=S)N(Cc2cccc(Br)c2)CC2CCC(C(=O)O)CC2)cc1 (stereo not given),12.3
COc1ccc(-c2noc(CCC(=O)NCCCN3CCN(c4ccc(F)cc4)CC3)n2)cc1,15.2
COc1ccc(OC)c(/C=N/NC(=O)c2ccc(Cn3cc([N+](=O)[O-])cn3)o2)c1,3.0
CCC1CCCCN1C(=O)CSc1nc(C)cc(C)n1 (stereo not given),5.2
Cc1nnc(SCC(=O)NC(C)(C)C)n1NCc1c(F)cccc1Cl,15.8
Cc1cc(=O)oc2cc(OC(=O)c3cncc(Br)c3)ccc12,31.3
Cc1cccc(-n2c(O)c(C=Nc3ccccc3O)c3ccccc3c2=O)n1,22.4
CN(C)/C=C(\C#N)C(=O)Nc1ccc(O)cc1F,9.1
COc1ccccc1N1CCN(C2CCN(S(=O)(=O)c3ccc(NC(C)=O)cc3)CC2)CC1,11.3
CC1SC(c2ccccc2)N(CC(O)c2ccc([N+](=O)[O-])cc2)C1=O (stereo not given),31.4
C/C(=N/NC(=O)CNC(=O)c1cccnc1)c1cccc([N+](=O)[O-])c1,17.2
COc1ccc(C2CC(c3ccc(OC)cc3)n3nc(NS(C)(=O)=O)nc3N2)cc1 (stereo not given),4.1
O=C(CN1C(=O)C2C3C=CC(C4CC34)C2C1=O)Nc1cccc2ncccc12 (stereo not given),0.9
CCC(=O)c1ccc(OCC(=O)N(C)CC(=O)Nc2cccc(F)c2)cc1,3.4
COc1ccc(Cl)cc1C(=O)NNC1CC(=O)N(Cc2ccc(Cl)cc2)C1=O (stereo not given),14.0
COc1cccc(/C=N/n2c(-c3n[nH]c4c3CCC4)n[nH]c2=S)c1O,11.2
COc1cc(/C=N/O)ccc1OCc1ccc(Cl)cc1,4.1
COC(=O)Cc1ccc(NC(=S)NCc2ccccc2Cl)cc1,12.4
O=C(O)c1cccc(NC(=O)c2cn(-c3ccccc3)nc2-c2cc3ccccc3o2)c1,20.8
CCc1ccc(OCC(=O)NNC(=O)Cc2cccs2)cc1,8.4
O=C(O)CCNc1ccc(Cl)cc1,10.8
O=C(CSc1n[nH]c(=O)[nH]c1=O)N/N=C/c1ccccc1O,11.1
COc1ccc(-c2nnc(N(C)C(=O)C3CCOC3)s2)cc1 (stereo not given),19.5
O=C(O)c1ccc2c3c(cccc13)C(=O)N(OS(=O)(=O)c1ccccc1)C2=O,20.4
O=C(Nc1ccc(S(=O)(=O)NC2=NCCCCC2)cc1)c1ccc(C(F)(F)F)cc1,20.2
Cc1sc2nc(CSCC(=O)Nc3c(Cl)cccc3Cl)[nH]c(=O)c2c1C,-5.0
O=C(N/N=C/c1cn(-c2ccccc2)nc1-c1cc2ccccc2o1)c1ccccc1Br,15.2
COc1ccc(-c2cc(=O)oc3cc(OCC(=O)c4cccc([N+](=O)[O-])c4)ccc23)cc1,18.6
COc1ccc(-c2nnn(CC(=O)c3ccc4c(c3)OCCO4)n2)cc1OC,-0.3
C(=N\N1CCN(c2ccccn2)CC1)/C1=C(N2CCOCC2)C(=C/c2ccccc2)/CC1,17.1
CC(=O)c1c(C)[nH]c(C(=O)OCc2ccccc2F)c1C,8.4
COC(=O)C1C(c2ccc(OC)cc2)NC(=O)NC1(O)C(F)(F)Cl (stereo not given),8.0
O=C(CN(C(=O)c1ccccc1Cl)N1C(=O)CCCC1=O)c1ccc(Cl)cc1,9.4
COc1cccc(SCc2noc(C(=O)NCc3ccccc3)c2C(=O)NCc2ccccc2)c1,12.5
CC(C)=C1C2CCC1C1C(=O)N(c3ccc(C)c(C)c3)C(=O)C21 (stereo not given),3.7
CCN(CC)S(=O)(=O)c1ccc(N/N=C/c2ccccc2OCC(=O)O)c([N+](=O)[O-])c1,6.9
Cc1ccc2[nH]c(=O)c(CN(Cc3ccco3)C(=O)CN3CCCC(C)C3)cc2c1 (stereo not given),11.9
O=C(CNC(=O)c1ccccc1Cl)N/N=C/c1ccc([N+](=O)[O-])s1,17.1
CCCOc1cccc(OCC(=O)Nc2nc3ccccc3[nH]2)c1,6.2
Cc1ccc(C)c(NC(=O)C2CCCN2/C=C/C(=O)C(F)(F)F)c1 (stereo not given),7.4
NC(=O)c1ccc(Oc2cccc3cccnc23)c([N+](=O)[O-])c1,-10.9
Cc1ccc(C(=O)Nc2nnc(SCC(=O)N3CCCc4ccccc43)s2)cc1,3.7
O=C(NCC(c1cccs1)N1CCOCC1)c1ccc(Cl)c(S(=O)(=O)N2CCOCC2)c1 (stereo not given),2.2
COc1ccc(/C=N/NC(=O)C(C)n2cnc3ccccc3c2=O)cc1OC (stereo not given),19.3
O=C(c1cc([N+](=O)[O-])ccc1Cl)N1CCN(c2ccc(F)cc2)CC1,7.8

# The listing continues:
SMILES,Biofilm kill mix
FC(F)Oc1ccc(NC(=S)NCc2ccccc2)cc1,6.7
CC(=O)NC1=NN(C(C)=O)C2(S1)C(=O)N(C(C)=O)c1ccc(C)cc12 (stereo not given),20.1
Cc1noc(C)c1CCC(=O)O,-5.1
O=C(NN1C(=O)c2ccccc2NC1c1ccoc1)c1ccccc1 (stereo not given),9.8
COC(=O)c1sc(NC(=S)NC(=O)c2ccc(F)cc2)nc1C,16.5
O=[N+]([O-])c1ccc(Oc2ccc(Oc3ccc(C(F)(F)F)cn3)cc2)nc1,23.5
COc1ccc(NC(=O)c2ccc(S(=O)(=O)N(C)c3ccccc3)cc2)cn1,17.6
CCCCC(=O)NC(=S)Nc1ccccc1N1CCCCC1,16.3
O=C1OC(COc2ccc(Br)cc2)CN1c1ccccc1 (stereo not given),5.0
COC(=O)c1cccc(NC(=O)c2ccc(OC)c(Cl)c2)c1,11.4
O=C(O)c1ccc(/C=N/N2CCN(Cc3ccc(Cl)cc3)CC2)cc1,22.8
CC(C)(C)NC(=O)CCSc1nnc(-c2ccco2)o1,10.5
CCN1CCCc2cc(CN(CCN3CCOCC3)C(=S)Nc3cccc(C)c3)ccc21,7.7
CCCCC(=O)N(Cc1nc2sc(C)c(C)c2c(=O)[nH]1)C1CCCC1,11.9
CCC(C)NC(=O)CN1C(=O)NC2(CCc3ccccc3C2)C1=O (stereo not given),3.9
CC(=O)c1cccc(N=Nc2c(C)[nH]c3ccccc23)c1,19.7
Nc1nc(Nc2cccc(Cl)c2)nc(NCCO)c1[N+](=O)[O-],28.7
CCn1c(=O)cc(OCC(=O)NCc2cccs2)c2ccccc21,18.8
O=c1c2ccccc2[nH]c(=S)n1CCN1CCc2ccccc2C1,19.9
CC(=O)Nc1sc(N/N=C/c2ccc(C)cc2)nc1-c1ccc(C)cc1,19.8
O=C(NCc1nnc(SCC(=O)N2CCOCC2)o1)c1c(F)cccc1Cl,6.2
CCOC(=O)c1nn(-c2ccc([N+](=O)[O-])cc2)cc1O,18.6
CCOP(=O)(OCC)C(Nc1cccc(C(F)(F)F)c1)c1ccc(Br)cc1 (stereo not given),1.9
Cc1ccc(Cl)cc1N1CCN(c2cccc[n+]2C)CC1,1.0
Cn1c(COc2cccc3ccccc23)nnc1SCC(=O)OC1CCCCC1,17.3
Cc1ccc(CSc2ncnc3c2cnn3-c2ccccc2)cc1,2.5

# High-throughput results as filed in PubChem.

# An excerpt (hit frequency here may not be typical).
